KCNQ2 pot: potentiators of rat KCNQ2 potassium channel; CHO-K1 KCNQ2, FluxOR thallium flux fluorescence; stronger effect = higher value; B-score at 10 µM; 0.54% of 310,000 active;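 active means fluorescence ratio B-score at least 3 SD of library B-scores, with initial fluorescence B-score within 3 SD, cut at about 5.3 in these data; same plate scores as AID 2156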;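 further: B-score of peak minus minimum over baseline fluorescence ratio after K+ and Tl+ stimulus; positive B-score means potentiation of KCNQ2 with more thallium influx and brighter signal; only the inactives scoring about 0 or higher are listed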
Target sequence (O88943 whole entry, looked up): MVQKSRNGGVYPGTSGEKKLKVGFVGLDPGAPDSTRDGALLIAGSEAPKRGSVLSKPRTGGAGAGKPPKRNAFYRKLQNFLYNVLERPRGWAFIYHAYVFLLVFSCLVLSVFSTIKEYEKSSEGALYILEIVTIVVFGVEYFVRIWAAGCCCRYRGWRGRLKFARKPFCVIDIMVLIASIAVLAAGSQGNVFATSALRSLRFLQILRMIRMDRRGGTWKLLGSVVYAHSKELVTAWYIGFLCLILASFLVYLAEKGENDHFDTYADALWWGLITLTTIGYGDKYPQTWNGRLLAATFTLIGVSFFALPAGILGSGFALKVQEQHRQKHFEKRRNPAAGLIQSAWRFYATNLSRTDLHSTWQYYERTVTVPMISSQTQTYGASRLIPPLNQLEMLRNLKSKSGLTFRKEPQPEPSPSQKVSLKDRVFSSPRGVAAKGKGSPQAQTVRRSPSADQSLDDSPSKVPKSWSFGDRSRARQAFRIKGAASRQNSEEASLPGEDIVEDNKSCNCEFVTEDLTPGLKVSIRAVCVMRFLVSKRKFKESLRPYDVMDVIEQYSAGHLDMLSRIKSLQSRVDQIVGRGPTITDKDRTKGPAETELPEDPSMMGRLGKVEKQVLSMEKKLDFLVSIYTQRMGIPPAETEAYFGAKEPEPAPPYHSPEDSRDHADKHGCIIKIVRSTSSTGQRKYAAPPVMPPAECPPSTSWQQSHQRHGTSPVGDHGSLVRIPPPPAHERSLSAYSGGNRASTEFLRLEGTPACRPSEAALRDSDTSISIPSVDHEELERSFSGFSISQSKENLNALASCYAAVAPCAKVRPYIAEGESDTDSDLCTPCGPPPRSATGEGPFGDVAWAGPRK
KCNQ2 pot baseline: recorded beside KCNQ2 pot, whose call it bears; B-score; compound at 10 µM; measured here: initial fluorescence intensity artifact check;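 brightness before thallium and not channel activity; 0 = typical well and far values either way flag optical interference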
* marks the source's active call; other numbers are inactive results. Not all compounds are listed (hit frequency here may not be typical).

Every second line gives: KCNQ2 pot, KCNQ2 pot baseline
O=C(C1CCCN1C(=O)c1cccs1)N1CCN(Cc2ccc3c(c2)OCO3)CC1 (stereo unspecified)
 : 0.13, 0.17
Cc1cccc(/C=C2/S/C(=N/N=C3\CC4CCC3(C)C4(C)C)NC2=O)c1 (stereo unspecified)
 : 21*, -1.9*
Clc1ccc(-c2nsc(N3CCOCC3)n2)c(Cl)c1
 : 0.45, -1.3
COc1ccc(C(O)P(=O)(OC(C)C)c2ccc(N(C)C)cc2)c(OC)c1 (stereo unspecified)
 : 2.1, -1.5
Cc1ccc(/C=N/NC(=O)c2ccccn2)o1
 : 1.3, 0.14
COC(=O)c1ccccc1NC(=O)C12CC3CC(C1)CC(n1cnc(Cl)n1)(C3)C2
 : 0.35, -0.16
Cc1ccc(C)c(N=Cc2c(O)c3ccccc3oc2=O)c1
 : 0.31, -2.5
Cc1cc(NC(=O)COC(=O)COc2cccc3c2OC(C)(C)C3)no1
 : 0.33, -0.12
Cc1cccc(C)c1NC(=S)NC1CCCCC1
 : 0.78, -0.25
COC(=O)[C@H](CCSC)NC(=O)Nc1ccc(C)c(C)c1
 : 0.14, 2.3
Cn1c(C(=O)O)cnc1Sc1ncc(C(F)(F)F)cc1Cl
 : 0.46, -1.4
CC(C)[C@H](NC(=O)[C@@H]1CSCN1C(=O)OC(C)(C)C)C(=O)NCC1CCC(C(=O)O)CC1 (stereo partly specified)
 : 0.02, -2.1
Nc1cc(N)nc(SCCN2CCCCC2)n1
 : 0.12, 0
CC(=O)Nc1ccc(Nc2nc(C)c([N+](=O)[O-])c(Nc3ccc(NC(C)=O)cc3)n2)cc1
 : 0.56, -2.9
O=c1c2ccccc2nc(SCc2ccccc2)n1Cc1ccco1
 : 0.28, -2.3
CCC(=O)N/N=C/c1ccc(OS(=O)(=O)c2ccccc2)cc1
 : 1.4, -0.01
Cc1nn(C(C)C(=O)N2CCCC2)c(=O)c2nn(-c3ccccc3)c(C)c12 (stereo unspecified)
 : 0.72, 1.7
CN(C)S(=O)(=O)c1cccc(NC(=O)COC(=O)c2ccc3c(c2)OCO3)c1
 : 0.2, -0.78
CNC(=O)c1c[nH]c2ccc(S(=O)(=O)Nc3ccccc3F)cc2c1=O
 : 0.18, -1.4
CCOC(=O)C1CCN(C(=O)CC2C(=O)N(Cc3ccccc3)C(C)c3nc4ccccc4n32)CC1 (stereo unspecified)
 : 0.01, -1

A second format for some results above:
KCNQ2 pot,KCNQ2 pot baseline,structure
0.18,-1.4,CNC(=O)c1c[nH]c2ccc(S(=O)(=O)Nc3ccccc3F)cc2c1=O
2.1,-1.5,COc1ccc(C(O)P(=O)(OC(C)C)c2ccc(N(C)C)cc2)c(OC)c1 (stereo unspecified)

The list continues.
Every second line gives: KCNQ2 pot, KCNQ2 pot baseline
O=C(NCc1ccco1)C(c1ccc(F)cc1)N(CC1CCCO1)C(=O)Cn1nnc2ccccc21 (stereo unspecified)
 : 0.02, -0.29
CCOc1ccccc1NC(=O)CSc1n[nH]c(N)n1
 : 0.59, -0.06
CCC1Oc2ccc(C)cc2N(CC(=O)N2CCCC2)C1=O (stereo unspecified)
 : 0.59, -0.19
O=C(NCCCN1CCCC1)Nc1ccc(F)cc1
 : 0.36, -0.5
C/C(=N\NC(=O)C(=O)Nc1cc(C)ccc1C)c1ccncc1
 : 1.6, -0.48
CCN(CC)CCN(CC)Cc1ccccc1Br
 : 2.2, -1.4
C=CCNC(=O)CCCCC(=O)NCC=C
 : 0.06, 2.2
COC(=O)c1c(NC(=O)c2ccn(C)n2)sc2c1CCC2
 : 0.05, 1.8
Brc1ccc(C=Nc2ccc3c(c2)OCCOCCOCCO3)s1
 : 1.2, -1.5
COc1cccc(NC(=S)N(CCc2c(C)[nH]c3ccc(C)cc23)Cc2cccs2)c1
 : 0.01, 0.58
CC(C)C(=O)Nc1ccc(-c2nnc(-c3ccccc3)o2)cc1
 : 0.05, 1.5
O=C1CSC(c2ccccc2)N1Cc1ccccc1 (stereo unspecified)
 : 1.6, 0
COc1cc2oc3ccccc3c(=O)c2cc1OC
 : 1.8, -0.21
O=C1C(=O)N(CCN2CCOCC2)C(c2ccccc2)/C1=C(\O)c1ccc2c(c1)OCCO2 (stereo unspecified)
 : 1.8, -1.7
COC(=O)c1ccc(OCC(O)CN(CC(C)C)CC(C)C)cc1 (stereo unspecified)
 : 0.79, -2.3
O=C(NCCc1ccc(S(=O)(=O)N2CCCC2)cc1)c1cccs1
 : 0.29, 0.67
CCn1nnc(NC(=O)c2cccnc2)n1
 : 0.73, 0.1
Cc1ccccc1CS(=O)(=O)c1ccc(C(=O)N2CCOCC2)cc1[N+](=O)[O-]
 : 1.8, -0.51
CC(Sc1nc(N)cc(=O)[nH]1)C(=O)Nc1cccc(Cl)c1 (stereo unspecified)
 : 0.05, -0.41
NC(=O)C1(N2CCCCC2)CCN(C(=S)Nc2cccc(Cl)c2)CC1
 : 0.07, 0.84
O=C(NCC1CC1)Nc1cccc(Cl)c1
 : 1.7, 0.04
O=C1CCC([N+](=O)[O-])C(c2cccc(Br)c2)N1 (stereo unspecified)
 : 0.85, -1.1
COC(=O)C1=C(C)N(CCc2c[nH]c3ccc(OC)cc23)C(=O)C1
 : 1.5, -0.79
S=c1[nH]nc(-c2ccco2)n1/N=C/c1cccc(Cl)c1
 : 0.91, -1.5
CC(=O)Nc1c(O)c2ccccc2[nH]c1=O
 : 0.33, -0.91
O=C(NNc1ccccc1[N+](=O)[O-])Nc1ccc(F)cc1
 : 0.19, -0.8
Cc1cc(/C=N/NC(=O)CC2(C)OCCO2)c(C)n1-c1ccc(Cl)c(Cl)c1
 : 1.4, -0.01
CC(C)CC(=O)N=C1SC2CS(=O)(=O)CC2N1Cc1ccccc1Cl (stereo unspecified)
 : 0.55, 2.7
Fc1ccc(-c2csc(-c3ccncc3)n2)cc1
 : 0.96, 0
COc1cccc(C2CCCCN(C)C2=O)c1 (stereo unspecified)
 : 0.18, 0.26
CC(C)(C)C1CCC(C(=O)Nc2ccccc2)CC1 (stereo unspecified)
 : 0.76, 0.85
COc1cc(OC)cc(C(=O)NNC(=O)c2cc3ccccc3cc2O)c1
 : 0.16, -0.13
CC1=C(C(=O)N2CCOCC2)C(c2cccs2)NC(=O)N1 (stereo unspecified)
 : 0.11, 1.5
COc1cc(/C=N/O)ccc1Oc1ccc([N+](=O)[O-])cc1[N+](=O)[O-]
 : 0.43, 0.38
CCOC(=O)NN1C(=O)c2ccccc2NC1c1ccc(OC)cc1 (stereo unspecified)
 : 0.33, 1.6
CCCCN(CC)CCNC(=O)c1cc2c(=O)[nH]c3ccccc3c2s1
 : 1.5, -0.53
O=C(NCc1cccnc1)C(=O)c1c[nH]c2ccccc12
 : 0.99, -2.2
CC(Sc1ccc(Cl)cc1)C(=O)NCc1ccc2c(c1)OCO2 (stereo unspecified)
 : 7.7*, -0.25*
CSc1nc2ccc3nc(NC(=O)c4ccccc4)sc3c2s1
 : 2.3, -0.48
CNC(=O)NC(=O)CSc1nc2cc(C(=O)OC)ccc2c(=O)n1-c1ccccc1
 : 0.36, -0.23

Record cards, as listed above. Screens in order: KCNQ2 pot | KCNQ2 pot baseline
CC(=O)Nc1c(O)c2ccccc2[nH]c1=O is entered as 0.33 | -0.91
CCOC(=O)NN1C(=O)c2ccccc2NC1c1ccc(OC)cc1 (stereo unspecified) is entered as 0.33 | 1.6
Fc1ccc(-c2csc(-c3ccncc3)n2)cc1 is entered as 0.96 | 0
O=C1CCC([N+](=O)[O-])C(c2cccc(Br)c2)N1 (stereo unspecified) is entered as 0.85 | -1.1

An excerpt from above in order of the KCNQ2 pot value, high to low:
Every second line gives: KCNQ2 pot, KCNQ2 pot baseline
CC(C)(C)C1CCC(C(=O)Nc2ccccc2)CC1 (stereo unspecified)
 : 0.76, 0.85
COc1cc(/C=N/O)ccc1Oc1ccc([N+](=O)[O-])cc1[N+](=O)[O-]
 : 0.43, 0.38
CNC(=O)NC(=O)CSc1nc2cc(C(=O)OC)ccc2c(=O)n1-c1ccccc1
 : 0.36, -0.23

More compounds follow:
Every second line gives: KCNQ2 pot, KCNQ2 pot baseline
Cc1cc(C)nc(Nc2n[nH]c(COc3cccc4ccccc34)n2)n1
 : 0.47, 0.79
Cc1cc([N+](=O)[O-])ccc1NC(=O)C1CCCO1 (stereo unspecified)
 : 0.5, -1.1
C/C(=N\NC(=O)c1ccccc1O)c1ccc(NC(=O)Cc2ccccc2)cc1
 : 0.97, -0.9
CC(C)NC(=O)COc1coc(CN2CCN(c3ccccc3F)CC2)cc1=O
 : 0.67, -0.19
CCOc1ccc(CNCc2ccc(C(=O)O)cc2)cc1OC
 : 0.15, 0.66
O=C(O)CCC(=O)Nc1ccc(S(=O)(=O)N2CCCC2)cc1
 : 0.74, -0.14
O=C(CSCc1ccc(Cl)cc1)NN=C1CCCC1
 : 6.8*, 0.45*
O=C(NCC(c1ccco1)N1CCCCC1)c1ccc(S(=O)(=O)Nc2ccccc2)cc1 (stereo unspecified)
 : 0.08, 2.9
Cc1sc2nc(SCC(=O)Nc3ccc(S(N)(=O)=O)cc3)[nH]c(=O)c2c1C
 : 0.57, -0.04
O=C(NCCc1ccccc1)C1CCC(CNS(=O)(=O)c2ccc(F)cc2)CC1 (stereo unspecified)
 : 0.22, 1.1
CC1(C)CC(CC(=O)NC(=S)Nc2ccc([N+](=O)[O-])cc2)C(=O)O1 (stereo unspecified)
 : 0.86, -0.34
O=C(Nc1ccc(O)cc1)/C(=C\c1ccncc1)NC(=O)c1ccccc1
 : 0.17, 0.03
CCOC(=O)C1CCCN(CC(=O)c2ccc(F)cc2)C1 (stereo unspecified)
 : 1.2, -0.31
CCCOC(=O)c1ccc(NC(=O)C2C3CCC(C3)C2C(=O)O)cc1 (stereo unspecified)
 : 1.1, 1
COc1ccc(N(CC(=O)N/N=C/c2cccnc2)S(=O)(=O)c2ccccc2)c(OC)c1
 : 0.77, 0.03
Cc1ccc(C)c(NC(=O)c2cc(-c3cc(C)cc(C)c3O)n[nH]2)c1
 : 0.01, 1.2
COCCN(C(=O)COC(=O)CCc1ccc(OC)cc1)c1c(N)n(Cc2ccccc2)c(=O)[nH]c1=O
 : 0.13, 0.03
CSc1ccc(CN(C)Cc2nc3ccccc3c(=O)[nH]2)cc1
 : 0.45, 0.42
CCN(CC)CCCn1c2c(c(SCC(=O)N3CCc4ccccc43)nc1=O)CCC2
 : 0.93, 1.1
NC(=O)CC(NC(=O)Cc1cccc2ccccc12)c1ccc(NC2CCN(Cc3ccccc3)CC2)c([N+](=O)[O-])c1 (stereo unspecified)
 : 1.9, 0.06
COc1ccc(-c2nsc(SCC(=O)NCc3ccc4c(c3)OCO4)n2)cc1
 : 0.38, -0.06
CCOc1cccc2sc(N(CCN(CC)CC)C(=O)c3cccc([N+](=O)[O-])c3)nc12
 : 1.1, -0.51
COc1cccc(CNCC(O)COc2ccc(C(=O)c3ccccc3)cc2)c1 (stereo unspecified)
 : 1.5, -0.08
O=C(COc1ccc(C(=S)N2CCC(Cc3ccccc3)CC2)cc1)N1CCOCC1
 : 0.22, -2.4
C/C(=N\O)C(=O)C(CN1CCCCC1)CN1CCCCC1
 : 6*, -0.19*
NC(=Nc1ccccc1)Nc1ccccc1
 : 5.8*, 0.04*
Cc1ccc(-c2nnn(CC(=O)N3CCCCC3)n2)c(-n2cnnn2)c1
 : 0.3, -0.03
Cc1cc(C)c(NC(=O)NC(=O)c2ccc(F)cc2)c(C)n1
 : 0.81, -0.98
Nc1nc2n(n1)C(c1ccc(F)cc1)CC(c1ccc(F)cc1)N2 (stereo unspecified)
 : 0.72, -0.89
Cc1ccc(C(=O)N/N=C2\CCc3ccccc32)c(C)c1
 : 0.01, -0.16
O=C(O)c1ccc2c(c1)C(=O)N(c1ncccn1)C2=O
 : 0.53, -0.77
COc1ccc(-c2c(C)nn(-c3ccccc3)c2NC(C)=O)cc1OC
 : 0.14, -0.7
Cc1sc2nc3n(c(=O)c2c1C)NC(=O)CC3
 : 0.12, 1.2
CCCc1cc(=O)[nH]c(SCC(=O)Nc2oc(C)c3c(C)n[nH]c(=O)c23)n1
 : 0.5, 0.71
CN1C(=O)/C(=C/C=C2/CCCN2C)N(C)C1=S
 : 0.57, 0.18
Cc1ccc2nc(NC(=S)NC(=O)c3ccc(OC(C)C)cc3)sc2c1
 : 2.3, 0.7
CC(=O)c1c(N=CN(C)C)nc(C)nc1-c1ccccc1
 : 1.7, 0.05
CN1C(=O)Cc2cc(S(=O)(=O)N3CCN(c4cccc(Cl)c4)CC3)ccc21
 : 0.45, -2.2
CCc1nccn1S(=O)(=O)c1cc(C)c(OC)cc1C
 : 1.1, 0.04
CCOc1ccccc1NC(=O)Cn1c(=O)sc2ccccc21
 : 0.14, 0.8
Cc1ccc(-n2c(C)nn(-c3ncc(C(F)(F)F)cc3Cl)c2=O)cc1
 : 0.26, -1.9
CCCCNC(=O)O[C@@H]1C[C@H]2CCC(=O)N3CC[C@@H](C1)[C@@H]23
 : 1.6, 0.85
CC(C)OCCCNC(=O)CCc1nc(-c2ccccc2)no1
 : 0.07, 1.3
C=CCN1C(=O)C2C(C(=O)NC3CCCCC3)C3C=CC2(O3)C1C(=O)NC1CCCC1 (stereo unspecified)
 : 0.65, -2.1
CCCC(=O)Nc1nnc(SCC(=O)NCc2ccco2)s1
 : 2.1, -0.62
COc1ccc(NC(=O)CO/N=C(\C)c2cccs2)cc1
 : 0.09, 1.5
C=CCNC(=O)c1ccc2c(c1)N(CC)C(=O)c1ccccc1S2
 : 0.68, 2.6
COc1ccc(N(C(=O)c2ccn[nH]2)C(C(=O)NC2CCCC2)c2ccc(F)cc2)cc1 (stereo unspecified)
 : 0.97, 0.13
Cc1cc(C)n(-c2cccc(Cl)c2)c(=O)c1C#N
 : 1.3, -0.82
CC(C)CCN1CCN(C/C=C/c2ccco2)CC1CCO (stereo unspecified)
 : 0.06, -2.7
O=C(Nc1cccc2ccccc12)NC1CCS(=O)(=O)C1 (stereo unspecified)
 : 0.06, 0.1
O=C1Nc2ccc(Br)cc2C12OCCO2
 : 0.76, 1.4
COc1ccc(CCCNC(=O)C2CCC(=O)N(CC3CCCCC3)C2)cc1 (stereo unspecified)
 : 0.63, 0.11
CCN(CC)CCCN1C(=O)CSC1c1ccc([N+](=O)[O-])cc1 (stereo unspecified)
 : 0.5, -0.56
